Mtb H37Rv = Mycobacterium tuberculosis H37Rv growth inhibition, cell based, confirmatory dose response (AID 1949); hit rate 1.6% among 100,000; inhibition, % at 10 µg/mL, or IC50 in µg/mL where a hit was titrated; most inactive calls were filed without a number and no value below 0 was filed; M. tuberculosis H37Rv growth inhibition;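 active = confirmed in a dose series; inconclusive = about 50% or more but not retested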;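 also: bacteria grown 7 days with compound before Alamar blue readout; 0% = untreated bacteria and 100% = reference antibiotic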
* marks the source's active call; other numbers are inactive results; i = inactive; ? = inconclusive.

molecule | Mtb H37Rv
O=C(CCCCCCCC(=O)Nc1c(Cl)cc(Cl)cc1Cl)Nc1c(Cl)cc(Cl)cc1Cl | i
CCc1cccc(NC(=O)c2ccc(C)o2)c1 | i
Cc1sc(NC(=O)c2ccccc2)c(C(=O)NCCN2CCOCC2)c1C | i
CC1CC(C)CN(C2CCN(C(=O)c3ccccc3)CC2)C1 (stereo not drawn) | i
C=CCn1c(Cc2ccc(OC)cc2)nnc1SCC(=O)Nc1cccc(C(=O)OC)c1 | i
COc1ccccc1CNc1cc(C)ccn1 | i
Cc1ccc(CC(=O)Nc2nc3ccccc3s2)cc1 | ?
O=C(COc1ccccc1C(=O)NCCOc1ccc(F)cc1)NC1CC1 | i
CC1=C(C(=O)Nc2cccc(F)c2)C(c2ccsc2)C2=C(CC(C)(C)CC2=O)N1 (stereo not drawn) | i
Cc1ccc([N+](=O)[O-])cc1S(=O)(=O)Nc1ccc(Cc2ccncc2)cc1 | i
Cc1ccccc1CN1C(=O)C(O)(CC(=O)c2ccc3c(c2)OCCO3)c2ccccc21 (stereo not drawn) | i
CSc1cccc(NC(=O)CSc2nnc(-c3cccc(C)c3)n2-c2ccccc2)c1 | i
CCOc1cc(C)c(Cl)cc1S(=O)(=O)n1nnc2ccccc21 | i
O=C(NCc1cccnc1)c1cnn2cc(Br)cnc12 | i
COCC(=O)NNC(=S)NCC(C)C | i
COC(=O)c1ccc(NC(=O)C2CCN(C(=O)c3ccc(Br)cc3)CC2)cc1 | 36%
O=C(Nc1ccccc1Cc1ccccc1)c1cccs1 | i
O=C(CNS(=O)(=O)c1ccccc1)Nc1ccc(Br)cc1F | 0%
Cc1cc(Br)ccc1OCCn1cncn1 | i
CCOc1ccc(Br)cc1C(=O)NC(C)CCc1ccccc1 (stereo not drawn) | 6%
CCOC(=O)N1CCN(C(=O)c2cccc(NC(=O)c3ccco3)c2)CC1 | i
COc1ccc(N(CC(=O)Nc2cccc(C)c2C)S(C)(=O)=O)cc1Cl | i
COC(=O)c1c(NC(=O)C2CCCO2)sc(C)c1C (stereo not drawn) | i
O=C(Nc1nn(Cc2ccccc2F)cc1Br)c1cccs1 | i
O=C(COc1ccc(Cl)cc1Cl)NC(=O)N1CCCCC1 | i
CCC1SC(=NC(=O)c2cccs2)NC1=O (stereo not drawn) | i
CC(NC(=O)c1ccccc1NC(=O)CN(c1cc(C(F)(F)F)ccc1Cl)S(C)(=O)=O)c1ccccc1 (stereo not drawn) | i
O=C(CSc1ccccn1)NCc1ccc2c(c1)OCO2 | 4%
Cc1ccc(S(=O)(=O)NC(=O)c2cccc(Br)c2)cc1 | i
COc1ccc(Nc2nc(N)nc(CN3CC(C)CC(C)C3)n2)cc1 (stereo not drawn) | 33%

Going on with the list:
molecule | Mtb H37Rv
CCC(=O)NC(=S)Nc1ccc(-c2nc3cc(C(C)CC)ccc3o2)cc1 (stereo not drawn) | i
Cc1cc(Cl)ccc1OC(C)C(=O)NCc1ccncc1 (stereo not drawn) | i
CCN(CC)CCOc1c(Cl)cccc1Cl | i
O=C(CCN1C(=O)C2CC=C(Cl)CC2C1=O)NCc1ccccc1 (stereo not drawn) | i
COC(=O)c1ccc(NC(=O)CN(Cc2ccc(F)cc2)S(=O)(=O)c2ccc(Cl)cc2)cc1 | 6%
O=C(c1ccc(F)cc1)N1CCN(c2cccc(C(F)(F)F)c2)CC1 | i
CCc1cccc(C)c1NC(=O)CCOc1ccccc1 | i
COCCCNCCOc1ccc(Cl)cc1C(C)(C)C | i
CCCC(=O)Nc1ccc(-c2ccc(NC(=O)CCC)cc2)cc1 | i
COc1ccc(Cl)cc1NC(=O)c1cc(I)ccc1Cl | i
Cc1ccc(NC(=O)CN(C)S(=O)(=O)c2ccc(Br)cc2)cc1Cl | i
COC(=O)C(CC(=O)c1ccc(Cl)cc1)c1cc(=O)oc2cc(OC)ccc12 (stereo not drawn) | i
Oc1ccc(CN2CCN(c3ccc(F)cc3)CC2)c2cccnc12 | ?
c1ccc(CCN(Cc2ccccc2)C2CCN(Cc3c[nH]c4ccccc34)CC2)cc1 | 2.9µg/mL*
COc1ccccc1N(C(F)F)S(=O)(=O)c1cc([N+](=O)[O-])ccc1C | i
N/C(=N\OC(=O)COc1ccc(Cl)cc1Br)c1ccccc1Cl | i
CCOC(=O)c1c(NC(=O)COc2ccc(C(C)(C)C)cc2)sc(C(=O)OC)c1C | i
CC1(C)CC(NC(=O)c2ccccc2-c2ccccc2)CC(C)(C)N1 | i
COC(=O)c1ccc(-n2nnnc2SCC(=O)Nc2c(C)cccc2C)cc1 | 3%
CC(C)(c1ccccc1)c1ccc(OCC(=O)Nc2ccc(N3CCOCC3)cc2)cc1 | i
Cc1c(Cl)cccc1NC(=O)CSc1nnc(-c2ccc(Cl)c(Cl)c2)n1C | i
O=C(NNC(=S)Nc1cccc(Cl)c1Cl)c1ccc2c(c1)OCO2 | i
CCOC(=O)N1CCN(C(=O)C(C)(C)Oc2ccc(Cl)cc2)CC1 | i
NC1=NC(=Nc2ccc(Br)cc2)c2ccccc21 | 9%
O=C(NC1CCN(Cc2ccccc2)CC1)C1CCCO1 (stereo not drawn) | i
COc1cc([N+](=O)[O-])ccc1NC(=O)c1cc(-c2ccccc2C)nc2ccccc12 | i
CC(=O)n1nc(-c2ccc(Cl)cc2)nc1N | i
Cc1ccn(C(=O)c2cccc([N+](=O)[O-])c2)n1 | i
O=C(CCSc1ccc(Cl)cc1)NC1CCCC1 | i
CCc1cccc(NC(=O)C23CC4CC(CC(C4)C2)C3)c1 | i

Quoted from the listing.
c1ccc(CCN(Cc2ccccc2)C2CCN(Cc3c[nH]c4ccccc34)CC2)cc1 @ Mtb H37Rv = 2.9µg/mL*
NC1=NC(=Nc2ccc(Br)cc2)c2ccccc21 @ Mtb H37Rv = 9%

Some of the entries above in a different format:
> CCc1cccc(NC(=O)C23CC4CC(CC(C4)C2)C3)c1
- Mtb H37Rv = i

> CCOc1ccc(Br)cc1C(=O)NC(C)CCc1ccccc1 (stereo not drawn)
- Mtb H37Rv = 6%

Next part:
molecule | Mtb H37Rv
COc1cc(/C=C2/C(=O)NN(c3ccc(Cl)cc3)C2=O)ccc1OC(=O)c1ccco1 | 8%
COc1ccccc1NC(=O)C(=O)NC1CCCCCCCCCCC1 | i
O=[N+]([O-])c1ccc(CSc2ncc(-c3ccccc3)nn2)cc1 | i
Cc1ccc(C(=O)C(OC(=O)CNC(=O)c2ccccc2)c2ccccc2)cc1 (stereo not drawn) | i
Cc1csc2nc3ccccc3c(=O)n12 | i
CC(C)c1ccc(S(=O)(=O)N2CCC(C(N)=O)CC2)cc1 | i
CC(=O)c1cccc(NS(=O)(=O)N2CCCCC2)c1 | i
O=C1C2C3C=CC(C3)C2C(=O)N1Cc1ccc(Cl)cc1 (stereo not drawn) | i
COc1ccc(NC(=O)C(C)Oc2cccc(Cl)c2)c([N+](=O)[O-])c1 (stereo not drawn) | 6%
CCOC(=O)CNC(=O)c1cc(C)c(-c2ccccc2)s1 | 0%
O=C(Nc1nncs1)Oc1ccccc1 | i
Cc1ccc(-c2csc3ncnc(SCC(=O)NCc4ccccc4)c23)cc1 | i
CN(C)C(=O)Nc1ccc(Cl)c(Cl)c1 | 1%
Cc1ccc(OCC(=O)Nc2ccc(C(=O)Nc3ccccc3C(=O)O)cc2)cc1 | 1%
CN(C)CCCn1c(-c2ccc(Br)cc2)nc(=S)c2c1CCCC2 | i
O=C(CSCc1ccccc1)NC1CCCCC1 | 0%
CN1CCN(c2ccc(NC(=O)c3ccc([N+](=O)[O-])cc3)cc2)CC1 | 0%
COc1ccccc1NC(=O)C(=O)NCCN(C)C | i
CCCCC(=O)Nc1ccc(C(=O)N2CC(C)OC(C)C2)cc1 (stereo not drawn) | 3%
COC(=O)COc1ccc2c(=O)c(Oc3cnn(-c4ccccc4)c3)c(C)oc2c1 | 3.9µg/mL*
Cc1cc(C)c(C)c(S(=O)(=O)N2CCCCC2)c1C | i
COc1ccc(C(=O)CCC(=O)Nc2ccc(Br)cc2)cc1 | i
O=S(=O)(NC1CCCCC1Sc1ccc(F)cc1)c1ccccc1 (stereo not drawn) | 2%
CCCCC(=O)Nc1ccc(C(=O)Nc2ccc(CCCC)cc2)cc1 | i
CCc1ccc(N2C=C(C(=O)OC)C(c3ccc(OC)cc3OC)C(C(=O)OC)=C2)cc1 | 3%
Cc1ccc(NS(=O)(=O)c2cccc(C)c2)cc1 | 6%
CCOc1ccc(C(=O)Nc2cc(NC(=O)CC)ccc2Cl)cc1Br | i
CC(C)Oc1cccc(C(=O)NC(=S)Nc2cc(C(=O)O)ccc2Cl)c1 | i
O=S1(=O)NC(=NCc2ccccc2)c2ccccc21 | i
O=C(O)Cc1coc2ccc3ccccc3c12 | i

(listing goes on)
molecule | Mtb H37Rv
C=CCOc1ccc(Br)cc1C1NC(=S)NC(c2ccccc2)=C1C(=O)OCC (stereo not drawn) | i
O=C1c2ccccc2C(=O)N1C1CC2CCC1C2 (stereo not drawn) | i
O=C(CCCOc1ccc(Cl)cc1Cl)Nc1c(Cl)cccc1Cl | i
COc1cc(C=O)ccc1OCCCCOc1ccccc1Cl | i
CCOc1ccc(CN2CCN(c3ncnc4scc(-c5ccc(Cl)cc5)c34)CC2)cc1 | 5%
COCCn1c(-c2ccc(OC)c(OC)c2)nc2ccccc21 | i
O=C(CC1(c2ccc(Cl)cc2)C(=O)c2ccccc2C1=O)N1CCCCC1 | i
CC(=O)Nc1ccc(C(=O)CSc2ncn(-c3ccccc3)n2)cc1 | 3%
COCCCNC(=S)Nc1ccc(S(=O)(=O)Nc2ccc(Cl)c(Cl)c2)cc1 | i
C=CCNCCOCCOc1cccc(Br)c1 | i
Cc1ccc(S(=O)(=O)N(C)c2c(C)ccc(S(=O)(=O)N3CCCC3)c2C)cc1 | i
CC1CCCC(C)N1NC(=S)Nc1ccccc1 (stereo not drawn) | i
C=CCn1c(SCC(=O)OCC)nc2sc(C)cc2c1=O | i
Cc1nnc(NCC2CCCO2)[nH]c1=O (stereo not drawn) | i
Cc1ccc(NC(=O)CN(c2cccc(C(F)(F)F)c2)S(C)(=O)=O)cc1C | 1%
Cc1cc(OCC(=O)Nc2ccccc2C(N)=O)cc(C)c1Br | i
Cc1ccc(C(=O)CNc2ccccc2C)cc1 | i
CC(=O)c1ccc(NC(=S)Nc2cccc(Cl)c2C)cc1 | i
C#CC(C)(C)OC(=O)C(=O)NCc1ccccc1 | 0%
CCOC(=O)Cn1nc(-c2ccc(C)c(S(=O)(=O)N(C)C)c2)c2ccccc2c1=O | i
Cc1ccc(C)c(OCC(=O)Nc2ccc(C(C)C)cc2)c1C | 28%
N#C/C(=C\Nc1ccc(F)c(Cl)c1)C(N)=S | i
CCOC(=O)C1CCCN(S(=O)(=O)c2ccc(Cl)c(Cl)c2OC)C1 (stereo not drawn) | i
NS(=O)(=O)c1ccc(NS(=O)(=O)c2ccc(NC(=S)Nc3ccccc3)cc2)cc1 | i
FC(F)(F)c1cc(-c2ccco2)nc2cc(-c3ccccc3)nn12 | i
CC(Oc1ccccc1)C(=O)Nc1cc(NC(=O)C(C)Oc2ccccc2)cc(C(=O)O)c1 (stereo not drawn) | 6%
CC(=O)c1ccc(N2CCN(S(=O)(=O)c3ccc(C)cc3)C(C)C2)c(F)c1 (stereo not drawn) | i
CCC(CC)C(=O)Nc1ccc(S(=O)(=O)Nc2ccc(C)cc2)cc1 | i
Cc1ccc(NC(=O)CN2C(=O)c3ccccc3C2=O)cc1 | i
O=c1oc2ccc3ccccc3c2cc1-c1nc2ccccc2[nH]1 | i

3 of the compounds above, field by field:
Cc1ccc(NC(=O)CN2C(=O)c3ccccc3C2=O)cc1
- Mtb H37Rv: i
O=C(CC1(c2ccc(Cl)cc2)C(=O)c2ccccc2C1=O)N1CCCCC1
- Mtb H37Rv: i
Cc1ccc(NC(=O)CN(c2cccc(C(F)(F)F)c2)S(C)(=O)=O)cc1C
- Mtb H37Rv: 1%

Further results
molecule | Mtb H37Rv
COc1ccc(C(=O)COc2ccc(C)c(C)c2)cc1 | ?
COc1cc(NC(=O)c2ccc3c(c2)OCO3)ccc1NC(=O)c1ccco1 | i
O=C(CSc1nc2ccccc2o1)Nc1ccc(Oc2ccccc2)cc1 | 33%
CCCn1c(=O)c(C(=O)NC(C)c2ccccc2)c(O)c2ccccc21 (stereo not drawn) | i
O=C(c1ccccc1)c1ccccc1C(=O)N1CCCC1 | i
Cc1ccc(C(=O)NC(C)C2CC3CCC2C3)cc1 (stereo not drawn) | i
CCOC(=O)c1c(-c2ccccc2Cl)csc1NC(=O)C(C)C | i
C1CCC(N2CCN(C3CCCCC3)CC2)CC1 | i
O=C(Nc1ccc(S(=O)(=O)Nc2nccs2)cc1)c1cccc2ccccc12 | i
Cc1ccc(Cl)cc1NC(=O)C1CCN(C(=O)c2ccc(F)cc2)CC1 | i
CCOc1ccc2oc(C)c(C(=O)OC(C)C)c2c1 | i
Cc1ccc(NC(=O)CN(C)S(=O)(=O)c2ccccc2)c(C)c1 | i
C=CCc1cc(C)ccc1OCCCNCCOC | i
CCOC(=O)CSc1nc(C)c(CC)c(C)c1C(N)=O | i
Cc1cc(OCC(=O)N2CCN(C)CC2)cc(C)c1Br | 3%
CCOc1ccc(N(CC(=O)Nc2ccc(F)cc2F)S(=O)(=O)c2ccc(SC)cc2)cc1 | 3%
O=C(Nc1ccc(Cl)cc1)C1CC2CCCC(C1)C2=O (stereo not drawn) | ?
O=S(=O)(Nc1ccc(CSc2ccccc2)cc1)c1ccc(Br)s1 | i
CCC(C)c1ccccc1NC(=S)NC(=O)c1cccs1 (stereo not drawn) | 10%

The list is partial, so the mix of outcomes need not match the whole.
